# TCR activator: Activators of T cell receptors: qHTS campaign. primary human leukocytes, anti-CD3, IL-2 HTRF, 48 h. Potency, µM (doses to about 9.22 µM), for the others: at the top dose activation of IL-2 secretion, hits mostly activators. 330,000 tested, under 10 active. AID 504894, 2011; note: % of control where 0% means no effect
#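 Using a-CD3 beads without co-stimulation, primary human leukocytes were exposed to compounds for 48 hr. An HTRF IL-2 kit measured the cytokine, with europium-to-d2 energy transfer producing emission at 665nm upon 320nm excitation.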
# TRPV1 agonist: HTS Assay for Compounds that Act as Agonists of the Vanilloid Receptor 1; Transient receptor potential cation channel subfamily V member 1 (Homo sapiens), Q8NER1; TRPV1-expressing cells, Fluo-8 calcium influx, agonist mode; activation, % at 8.33 µM; 320,000 tested, 0.19% active; AID 540275, 2011; in the data active = activation above about 80%; inconclusive = between about 30% and that limit; note: 0% is about no effect
#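 Fluo-8 calcium influx in TRPV1-expressing cells, kinetic read (ex 480/em 520 nm). Compound added and read 3 min for agonist activity, followed by capsaicin at EC20 final and 2 min further read for enhancement.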
# Mito fusion yeast: qHTS Assay for Small Molecule Inhibitors of Mitochondrial Division or Activators of Mitochondrial Fusion. S. cerevisiae fusion-defective mutant growth rescue, CellTiterGlo 48 h. Potency, µM (highest dose often 46.1 µM), for inactives: top-dose growth rescue (activation), usual class: activators. 320,000 tested, 0.23% active. AID 485298, 2010;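 note: potency is the fitted concentration of half-maximal effect; % of control where 0% means no effect; nearly all actives have a fitted effect of over 45% in size; temperature-sensitive fusion mutants such as fzo1-1 at 37 °C on non-fermentable ethanol glycerol medium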
#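 Compounds are tested for their ability to restore growth of mitochondrial fusion-defective yeast strains at non-permissive 37C in YPEG medium over 48 hours. Viability is quantified by luciferase luminescence.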
# ELG1 DNA repair: qHTS screen for small molecules that inhibit ELG1-dependent DNA repair in human embryonic kidney (HEK293T) cells expressing luciferase-tagged ELG1; HEK293T ELG1-luciferase reporter, luminescence, 16 h; DNA damage induced by 5-fluorouridine; Potency, µM (top dose mostly 46.1 µM), for the others: at the highest dose activity change, negative = inhibition, most hits filed as inhibitors; 330,000 tested, 2.3% active; AID 504467, 2011; note: potency is the fitted concentration of half-maximal effect; % is set by controls: 0 for no effect and ±100 for the full control effect; nearly all actives have a fitted effect of over 55% in size
#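 In this reporter screen, reduction of luminescence relative to DMSO vehicle indicated activity. Compounds and 5-fluorouridine were added together to 2,000 cells per well, incubated for 16 hr at 37 °C, then developed with ONE-Glo.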
# KCNH2 WT inh: qHTS for Inhibitors of KCHN2 3.1: Wildtype qHTS; AID 720551, 2013; activity change, % at 1.84 µM; U2OS, BacMam KCNH2, thallium flux FluxOr; hits give low values; 340,000 tested, 0.37% active;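 active = maximum activity change below -70%; inconclusive = maximum activity change between -70% and -50%; inactive = maximum activity change above -50%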; note: % is set by controls: 0 for no effect and ±100 for the full control effect
#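 U2OS cells transduced with wild-type KCNH2 virus are loaded with FluxOr dye for 45 min, and thallium flux is measured in kinetic reads before and after stimulation buffer. Rate constants are normalized to DMSO controls.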
# KCNH2 3.1 inh: qHTS for Inhibitors of KCHN2 3.1: Mutant qHTS | U2OS KCNH2 3.1, thallium flux FluxOr; hits give low values | activity change, % (tested at about 1.8 µM) | 340,000 tested, 0.95% active;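 active = maximum activity change below -70%; inconclusive = maximum activity change from -70% to -50%; inactive = maximum activity change above -50%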;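 note: thallium influx rate constant from kinetic fluorescence after stimulation buffer; % is set by controls: 0 for no effect and ±100 for the full control effect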
#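 Measured as rate of thallium-driven FluxOr signal in transduced U2OS cells carrying the 3.1 channel, read kinetically for 2 min upon stimulation; values are rate constants scaled to DMSO control wells.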
# Eya2 phos inh: qHTS Assay for Inhibitors of the Phosphatase Activity of Eya2; Protein phosphatase EYA2 (Homo sapiens), O00167; recombinant Eya2, OMFP fluorescence dephosphorylation (OMFP is methylfluorescein phosphate); Potency, µM (series often up to 76.9 µM), inactives show top-dose activity, negative = inhibition, usual class: inhibitors; 330,000 tested, 0.006% active; AID 488837, 2010; note: potency is the fitted concentration of half-maximal effect; % is set by controls: 0 for no effect and ±100 for the full control effect
# Target sequence (O00167 whole entry, looked up): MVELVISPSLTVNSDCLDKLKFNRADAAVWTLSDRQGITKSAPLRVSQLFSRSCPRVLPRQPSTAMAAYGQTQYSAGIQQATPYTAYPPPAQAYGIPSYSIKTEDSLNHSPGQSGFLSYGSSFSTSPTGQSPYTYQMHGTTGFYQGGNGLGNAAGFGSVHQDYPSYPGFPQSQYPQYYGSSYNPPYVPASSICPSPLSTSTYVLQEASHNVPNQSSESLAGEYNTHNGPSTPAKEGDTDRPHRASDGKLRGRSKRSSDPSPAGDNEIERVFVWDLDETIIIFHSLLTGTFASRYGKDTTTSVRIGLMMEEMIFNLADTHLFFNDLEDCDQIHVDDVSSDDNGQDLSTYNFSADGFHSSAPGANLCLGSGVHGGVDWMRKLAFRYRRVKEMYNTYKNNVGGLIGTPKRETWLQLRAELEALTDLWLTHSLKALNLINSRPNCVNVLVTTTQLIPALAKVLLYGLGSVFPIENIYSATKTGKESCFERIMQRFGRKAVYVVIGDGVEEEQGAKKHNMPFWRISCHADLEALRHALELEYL
#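 Eya2 protein (added as 0.2 uM solution) was preincubated with compound for 10 min at ambient temperature in 50 mM HEPES pH 7.5, 50 mM NaCl, 5 uM MgCl2, 0.05% BSA, 1 mM DTT. OMFP (added at 50 uM) then reacted 10 min; fluorescence read at 485/525 nm.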
# USP2a block: qHTS Assay for Inhibitors of Ubiquitin-specific Protease USP2a Using CHOP2 as the Reporter | USP2 core, Ub-CHOP2 coupled fluorogenic reporter, 485/531 | Ubiquitin carboxyl-terminal hydrolase 2 (Homo sapiens), O75604 | 330,000 tested, 0.01% active | Potency, µM (titrated, usually from 38.3 µM), inactives show top-dose activity change, negative = inhibition, usual class: inhibitors;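 note: potency is the fitted concentration of half-maximal effect; plate controls were DMSO wells for no effect and full inhibition by NEM control for full effect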
#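 USP2 core (10nM final) preincubated 30min RT with compound in 20mM Tris-HCl pH 8.0, 2mM CaCl2, 2mM beta-mercaptoethanol, 0.05% CHAPS; 25nM Ub-CHOP2 plus 25nM reporter substrate added, fluorescence (Ex485/Em531) read after 60min.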
# A-T KAP1 phos: qHTS Assay for Identifying a Potential Treatment of Ataxia-Telangiectasia. […] A-T fibroblasts, KAP-1 phosphorylation AlphaLISA; neocarzinostatin DNA damage 30 min before lysis. Potency, µM (series often up to 57.5 µM), without a hit: top-dose activation, most hits filed as activators. 320,000 tested, 0.19% active. AID 485349, 2010; note: potency is the fitted concentration of half-maximal effect; % of control where 0% means no effect; nearly all actives have a fitted effect of over 45% in size
#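 hTERT-immortalized A-T patient fibroblasts ([…]), 500 cells/well in OPTI-MEM, 1% FBS, got compounds for 60 min, then NCS for 30 min at 37C. Lysates were then assayed for phospho-KAP-1 by AlphaLISA (anti-pKAP1 donor, anti-KAP1 acceptor beads), 6 hr at 25C.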
# * hit, by the source's call; ? = inconclusive; / = no result given; & = joins results of further samples; [ ] = another dose, or the depositor's remark. Unless noted, calls come from the whole dose curve; as a rule, active = well fitted curve in the direction sought with a large enough effect; inconclusive = small, poorly fitted or top-dose-only effect, or another doubt; inactive = no such curve, though single readings can be large; an effect the other way counts as inactive or inconclusive.
SMILES,TCR activator,TRPV1 agonist,Mito fusion yeast,ELG1 DNA repair,KCNH2 WT inh,KCNH2 3.1 inh,Eya2 phos inh,USP2a block,A-T KAP1 phos
COC(=O)c1cc(S(=O)(=O)NCCN2CCOCC2)cn1C,2%,2,6%,14%,-6,9,0%,0%,2%
Nc1ccc(S(=O)(=O)Nc2ccc(Cl)nn2)cc1,7%,-1,-7%,-12%,-16,-9,-21%,11%,-3%
Cc1ccc(-c2csc3ncnc(N4CCN(S(=O)(=O)c5cccs5)CC4)c23)cc1,0%,16,-30%[inhibitor],?,-19,4,10%,2%,0%
COC(=O)c1cccc(CN2C(=O)SC(Nc3ccc(C)cc3)C2=O)c1 (configuration not stated),-4%,0,0%,0%,3,-10,-16%,-6%,1%
CC1=CC(C)(C)Nc2ccccc21,-1%&6%,3&-3,0%&-1%,13%&-4%,-5&10,-4&2,5%&13%,-1%&1%,4%&26%
c1ccc(C2C3=C(Nc4ncnn42)c2ccccc2CCC3)cc1 (configuration not stated),-2%,4,-1%,-6%,-11,-2,19%,1%,0%
Cc1[nH]n2c(=O)c3c(nc2c1-c1ccc(F)cc1)CCCC3,4%,10,0%,-10%,-2,-6,8%,-1%,4%
Nc1c(C(=O)CSc2n[nH]c(-c3ccccc3Br)n2)c(=O)[nH]c(=O)n1C1CC1,0%,1,0%,-6%,-6,-7,-3%,-2%,7%
CCc1ccc(CNC(=O)c2nn(C)c3c2CS(=O)(=O)c2ccccc2-3)cc1,1%,1,10%,?,-13,-9,0%,0%,-2%
COC(=O)CN(c1ccc(OC)c(OC)c1)S(C)(=O)=O,-1%,14,1%,5%,-7,15,7%,0%,4%
O=C(O)c1nccnc1C(=O)Nc1ccc(Cl)cc1Cl,-2%,-2,10%,15%,3,31,-11%,1%,-14%
O=C(O)CCCN1C(=O)c2ccccc2Sc2ncccc21,-4%,1,-5%,12%,-10,-4,0%,1%,-3%
O=C(NCC1CC1)C1(S(=O)(=O)c2ccccc2)CC=CC1,-1%,0,-2%,17%,1,19,3%,3%,-1%
Cc1ccc(C(=O)NC(=S)Nc2cccc(-c3nc4ccccc4s3)c2)cc1,6%[46.1 µM],2,-2%,?,-21,-1,-5%,0%,1%
CCn1nc(C(=O)NNS(=O)(=O)c2cc(/C=C/C(=O)O)cc(OC)c2OC)c2ccccc2c1=O,-8%,/,/,12%,-6,-1,-11%,-2%,7%
CCN(CC)CCOCCOc1ccc(Cl)c2ccccc12,11%,2,2%,-7%,-1,-3,?,1%,0%
Cc1nn2c(-c3ccccc3)ccnc2c1-c1ccccc1,-2%,1,7%,?,-4,11,-2%,0%,-1%
O=C1[C@@H](Oc2ccccc2)[C@@H](c2cccnc2)N1c1ccccc1,2%[46.1 µM],/,/,?,-1,/,-21%,0%,3%[11.5 µM]
O=C(N/N=C\c1cn(-c2ccccc2)nc1-c1ccccc1)c1ccc(Br)o1,7%,2,2%,?,11,-9,26%,-1%,8%
CC1OC(OC2C(CO)OC(OC3C(CO)OC(O)C(O)C3O)C(O)C2O)C(O)C(O)C1N[C@@H]1C=C(CO)[C@@H](O)C(O)[C@H]1O (some centres not stated),-2%,1,-1%,10%,9,-6,6%,1%,7%
O=C(NC1CCCC1)C(c1cccnc1)N(CCc1ccccc1)C(=O)c1ccco1 (configuration not stated),3%,20,3%,-6%,3,13,-3%,-2%,-1%
CC(=O)N1CCc2cc(C(=O)CN3CCN(C(=O)c4ccco4)CC3)ccc21,-12%,/,-1%,8%,-3,-2,-22%,-1%,13%
O=C(Nc1ccccc1C(=O)Nc1nnc(C(F)(F)F)s1)c1ccccc1,2%,5,?,4.6µM*,8,-13,7%,2%,?
O=C(Nc1ccccc1)c1ccccc1O,-6%,2,7%,?,-7,11,-1%,-2%,-4%
COc1ccc(C2C(=O)c3ccccc3C2=O)cc1,1%,1,12%,?,2,3,7%,6%,-5%
Cn1nc(C(=O)NCc2ccccc2Cl)c2c1-c1ccccc1S(=O)(=O)C2,-4%,-3,22%,?,-5,-30,2%,-1%,-3%
COc1ccc(/C=N/NC(=O)c2cccc(C(=O)N/N=C/c3ccc(OC)cc3)n2)cc1,-4%,-6,-8%,15%,9,-12,-4%,0%,-6%
C/C(Sc1nnc(Cc2ccccc2)o1)=C(/O)c1ccccc1,-2%,3,-1%,-5%,0,-3,-1%,-2%,2%
Cc1ccc(-c2ccc(=O)n(CC(=O)Nc3cccc(C(=O)N4CCN(C)CC4)c3)n2)cc1,-2%,1,2%,-7%,9,-15,-1%,2%,8%
CC(=O)OCCC(C)C,-13%,/,/,6%,-4,-2,4%,3%,-14%
COc1ccc(/C=C2/S/C(=N/S(=O)(=O)Cc3ccccc3)NC2=O)cc1OC,2%,-2,3%,24%,2,6,5%,0%,-9%
COC(=O)c1ccc(C2NC(=S)N(c3ccccc3)C(C)=C2C(=O)Nc2ccccc2OC)cc1 (configuration not stated),-2%,3,-1%,-7%,13,18,-29%,-11%,-2%
CS(=O)(=O)N(CC(=O)N1CCN(Cc2ccccc2)CC1)c1ccccc1Br,-1%,1,0%,-11%,-7,-5,-4%,-4%,2%
FC(F)Sc1ccc(NC(=S)NCC2CCCCC2)cc1,9%,?,-6%,5%,-15,?,-19%,-2%,8%
Fc1ccc(-c2csc(-c3cccnc3)n2)cc1F,8%,4,-4%,?,4,5,-7%,-1%,-7%
Cc1cccc(/C=C2/S/C(=N/N=C3\CC4CCC3(C)C4(C)C)NC2=O)c1 (configuration not stated),0%,?,-11%,-22%,3,-8,-2%,-1%,?
CC1CCCC(C)N1Cc1cn2ccccc2n1 (configuration not stated),-2%,3,-7%,0%,8,12,-17%,4%,9%
COc1ccc(Nc2cc(NCCCO)c([N+](=O)[O-])c3nonc23)cc1,1%,-3,1%,0%,16,1,?,1%,-9%
CS(=O)(=O)N(CC(=O)N1CCN(Cc2ccccc2)CC1)c1cccc([N+](=O)[O-])c1,-6%,5,1%,-20%,25,-8,-2%,1%,8%
Cc1cc(C)c2c(CC(=O)N3CCCC3)coc2c1,/,2,5%,12%,-9,8,10%,2%,21%

# Pulled by compound from the list above (four):
SMILES,TCR activator,TRPV1 agonist,Mito fusion yeast,ELG1 DNA repair,KCNH2 WT inh,KCNH2 3.1 inh,Eya2 phos inh,USP2a block,A-T KAP1 phos
CS(=O)(=O)N(CC(=O)N1CCN(Cc2ccccc2)CC1)c1ccccc1Br,-1%,1,0%,-11%,-7,-5,-4%,-4%,2%
CC(=O)N1CCc2cc(C(=O)CN3CCN(C(=O)c4ccco4)CC3)ccc21,-12%,/,-1%,8%,-3,-2,-22%,-1%,13%
O=C(NC1CCCC1)C(c1cccnc1)N(CCc1ccccc1)C(=O)c1ccco1 (configuration not stated),3%,20,3%,-6%,3,13,-3%,-2%,-1%
Cc1cc(C)c2c(CC(=O)N3CCCC3)coc2c1,/,2,5%,12%,-9,8,10%,2%,21%

# Next results follow.
SMILES,TCR activator,TRPV1 agonist,Mito fusion yeast,ELG1 DNA repair,KCNH2 WT inh,KCNH2 3.1 inh,Eya2 phos inh,USP2a block,A-T KAP1 phos
COC(=O)[C@H]1[C@H]2C[C@H]3c4[nH]c5ccccc5c4CCN3C[C@@H]2CC[C@@H]1O,2%&0%,-1&4,-4%&10%,-9%&7%,3&1,6&-1,23%&-3%,10%&0%,-8%&7%
O=C1C(=O)c2ccccc2C(O)=C1C1CCC(c2ccc(Cl)cc2)CC1 (configuration not stated),5%,0,-8%,11%,-7,4,10%,1%,-13%
COc1ccc(N(CC(=O)N2CCCCCC2)S(C)(=O)=O)cc1Cl,-1%,-4,2%,-3%,-14,9,2%,-3%,3%
COc1ccccc1OCCCOc1ccc(/C=C2\SC(=O)NC2=O)cc1OC,/,-3,4%,-8%,-1,1,-6%,3%,-1%
CCOc1ccc2ccccc2c1C1NC(=S)N(C)C(C)=C1C(=O)OC (configuration not stated),10%,-2,4%,3%,7,0,0%,-1%,16%
Cc1cc(C)c2nc(NC(=O)C3CCCO3)sc2c1 (configuration not stated),-13%,16,7%,?,3,-1,4%,5%,/
COC(=O)[C@@H](CC(C)C)NS(=O)(=O)N(Cc1ccccc1)[C@@H](CC(C)C)C(=O)OC,-4%,12,12%,?,-3,15,-20%,4%,17%
O=C(Nc1ccccc1)N1C(=O)C2(OCCO2)c2ccccc21,0%,2,-2%,0%,-3,3,9%,3%,0%
CC(=O)N/C(=C\c1ccccc1)C(=O)OC(C)C(=O)Nc1ccccc1F (configuration not stated),13%,1,6%,8%,-10,8,1%,2%,11%
CCN1CCC2(CCN(C(=O)c3cc(COc4cc(C)ccc4C)on3)C2)C1 (configuration not stated),3%,2,-3%,3%,11,1,-11%,1%,-9%
Cn1c2ccccc2c2cnn(CC(=O)Nc3cccc(F)c3)c(=O)c21,1%,8,4%,11%,-1,-4,21%,10%,-6%

# Not all compounds are listed; rates above refer to the full screens.
